H5N1 CPE: MDCK cell protection from H5N1 avian flu | cytopathic effect, luminescence, 72 h; active compounds read high; no value below 0 was filed and about half of the inactive calls have no number; reference of the scale not given here | inhibition, % at 50 µM | 0.07% of 96,000 active | AID 740, 2007; in the data active = inhibition above about 25%
* hit, by the source's call; i = inactive.

SMILES | H5N1 CPE
CCc1nnc(NC(=O)CSc2nnc(-c3ccoc3C)n2-c2ccccc2)s1 | 0.1
CCOc1ccc(NC(=O)c2oc3ccccc3c2NC(=O)CC)cc1 | i
Nc1nnc(SCc2ccc3c(c2)OCO3)s1 | i
Cc1ccc(C)c(Cn2cnc3c(cnn3C(C)(C)C)c2=O)c1 | 4.1
CCCCSC1=NN1c1nc(N)nc(C)c1CC | 0.1
O=C(Nc1ccccc1)c1ccc(NCc2cccnc2)c(S(=O)(=O)N2CCOCC2)c1 | i
C=CCN(C(=O)c1cccc(S(=O)(=O)N2CCN(C)CC2)c1)c1nc(-c2ccccc2)cs1 | i
Cc1cc(C(=O)COC(=O)c2cccs2)c(C)n1-c1c(C)n(C)n(-c2ccccc2)c1=O | i
CCCc1cc(=O)n2[nH]c(SCc3ccccc3)nc2n1 | 0.4
COc1ccc(NC(=O)CN(C)S(=O)(=O)c2ccccc2)c([N+](=O)[O-])c1 | i
O=C(NNC(=S)Nc1ccccc1)c1cccc(Br)c1 | i
Cc1cc(C)cc(NC(=S)NC2CC3CCC(C2)N3Cc2ccco2)c1 (configuration not stated) | i
Cc1ccc(C2=Nc3ccccc3NC(C)(c3ccc(C)o3)C2)o1 (configuration not stated) | 0.6
C(=C\c1ccccc1)/C=N/Nc1nc(N2CCOCC2)nc(N2CCOCC2)n1 | i
CC(C)N(Cc1nc(-c2ccccc2)no1)C(=O)c1ccc2c(c1)OCO2 | 1.1
CS(=O)(=O)N(CC(=O)Nc1ccc(F)cc1F)c1cccc([N+](=O)[O-])c1 | i
Cc1n[nH]c(=S)n1/N=C/c1ccccc1OCc1ccc(Cl)cc1 | i
Cc1cccc(NC(=O)c2onc3c2CCCC3)c1C | i
O=C(c1coc(=O)c(Br)c1)N1CCCc2ccccc21 | 0.5
CC1(C(=O)O)CCC(C(=O)N2CCOCC2)C1(C)C (configuration not stated) | i
Cc1cc(NC(=O)c2cccc(S(=O)(=O)N3CCOCC3)c2)no1 | 0.3
CCN(c1ccccc1)S(=O)(=O)c1cnc[nH]1 | i
CNC(=O)CN(c1ccc(F)cc1)S(=O)(=O)c1cc(C)ccc1OC | i
OCCN1CCN(c2nc(-c3ccccc3)c3cc(Cl)ccc3n2)CC1 | i
CCSc1oc(-c2ccco2)nc1S(=O)(=O)c1ccc(F)cc1 | 6.5
CCc1ccccc1S(=O)(=O)Cc1ccc(C(=O)NCC2CCCO2)o1 (configuration not stated) | i
COc1ccc(NS(=O)(=O)c2ccc(S(=O)(=O)N3CCCC3)cc2)cc1 | 1.4
CC(=O)Nc1cc2c(cc1NC(=O)c1cnccn1)OCCO2 | 1.1
Cn1cccc1/C=N/NC(=O)c1sc2ccccc2c1Cl | 0.2
COCCOC(=O)c1c(C)n(C)c2ccc(OC(=O)N3CCOCC3)cc12 | i
COc1ccc(C2NC3=C(CCC3)C3(C#N)C(OC)(OC)N=C(N)C23C#N)cc1 (configuration not stated) | i
Cc1cc(C)nc(NS(=O)(=O)c2ccc(NC(=O)c3ccc(S(=O)(=O)N4CCOCC4)cc3)cc2)n1 | i
O=C(CSc1nnc(-c2ccco2)o1)c1ccccc1 | i
COC(=O)CCC(=O)Nc1nnc(C(F)(F)F)s1 | i
COc1ccc(C(=O)/C=C\N2CCOCC2)cc1 | i
Cc1ccc2cc(COC(=O)c3ccncc3)c(=O)[nH]c2c1 | i
C=CCOc1cccc(CNn2cn[nH]c2=S)c1 | 1.4
COc1ccc(C(=O)N2CCC(N3CCN(c4ccccc4)CC3)CC2)cc1 | 0.1
CC1CCN(C(=O)C2Cc3ccccc3CN2S(=O)(=O)c2ccc(F)cc2)CC1 (configuration not stated) | i
CCCCNCCCCOc1ccccc1 | i
CSc1nnc(Cn2c(=O)sc3ccccc32)n1-c1ccccc1C | 0.2
O=C(CN1CCN(C2CCCCC2)CC1)c1ccc2cc[nH]c2c1 | i
O=C(NCC1CCCO1)c1cccnc1Nc1ccccc1F (configuration not stated) | 0.6
O=C(CN(C(=O)c1ccco1)c1cccc(F)c1)NCc1ccc(F)cc1 | i
COc1ccc(-c2nnc(SCc3nc4ccccc4s3)n2C(C)C)cc1 | 3.7
Cc1ccc(NC(=O)c2ccco2)cc1C | i
O=C(Nc1nc2ccccc2n1Cc1ccc(Cl)cc1)c1ccco1 | i
CCOC(=O)c1ccc(NC(=O)Cn2cc3c(n2)CCC(C)C3)cc1 (configuration not stated) | i
Cc1cc(-c2cccnc2)c(C#N)c(SCC#N)n1 | 0.6
O=C(NCCCCc1ccccc1)C1CC(c2ccc([N+](=O)[O-])cc2)=NO1 (configuration not stated) | 0.4
(next part)
SMILES | H5N1 CPE
O=C(NCCCN1CCOCC1)c1ccc(CS(=O)(=O)c2c(Cl)cccc2Cl)o1 | 1.2
CC(C)CCNC(=O)Cn1c(=O)oc2cc(S(=O)(=O)N3CCc4ccccc43)ccc21 | i
O=C(O)CCC(=O)Nc1ccc(F)cc1 | i
CCOC(=O)c1c(NC(=O)CSc2nnc3c(n2)[nH]c2ccc(F)cc23)sc(C(C)=O)c1C | i
CC(=O)c1c(C)[nH]c2ccccc2c1=O | 0.7
O=C(NCc1ccc(Cl)c(Cl)c1)c1cccnc1 | i
COc1ccc(OC)c(-c2nc(C)sc2CC(=O)O)c1 | 0.4
COc1ccc(N=c2oc3cc(O)ccc3cc2C(=O)NCC2CCCO2)c(OC)c1 (configuration not stated) | 0.6
Cc1nc(C(F)(F)F)c(C(=O)NC(=O)Nc2ccc(OC(F)(F)F)cc2)s1 | i
COC(=O)c1ccc(NC(=O)C23CCC(C)(C(=O)O2)C3(C)C)cc1 (configuration not stated) | 0.1
CCc1c(C)nc2cc(-c3ccc(OC)c(OC)c3)nn2c1N1CCC(C)CC1 | i
O=C(OCc1cccs1)c1ccccc1NS(=O)(=O)c1ccc2c(c1)OCCO2 | 0.4
CCc1nc(SCC(=O)N2CCCC2)c2ccccc2n1 | 23
CCNS(=O)(=O)c1ccc(NS(=O)(=O)c2cc(C)ccc2C)cc1 | 0.3
O=C(O)Cc1ccc2c(c1)N(S(=O)(=O)c1cccc(C(F)(F)F)c1)CC(C(=O)O)O2 (configuration not stated) | i
Cc1nn(C(C)C(=O)N2CCc3ccccc32)c(C)c1[N+](=O)[O-] (configuration not stated) | i
CCCOc1ccccc1N/C(=N/c1nc(C)cc(C)n1)NC(=O)Nc1ccc(Cl)cc1 | i
CCOC(=O)c1snc(-c2ccc(F)cc2)c1N | i
CN1CCCC(OC(=O)c2ccc3c(c2)OCCO3)C1 (configuration not stated) | i
Cc1cc(C)n(-c2nnc(C)n2/N=C/c2ccccc2O)n1 | 0.1

Retrieved one by one from above (four):
SMILES | H5N1 CPE
O=C(Nc1ccccc1)c1ccc(NCc2cccnc2)c(S(=O)(=O)N2CCOCC2)c1 | i
COCCOC(=O)c1c(C)n(C)c2ccc(OC(=O)N3CCOCC3)cc12 | i
CS(=O)(=O)N(CC(=O)Nc1ccc(F)cc1F)c1cccc([N+](=O)[O-])c1 | i
Cc1cc(NC(=O)c2cccc(S(=O)(=O)N3CCOCC3)c2)no1 | 0.3

The list goes on:
SMILES | H5N1 CPE
O=c1[nH]c(=S)n(CCC2=CCCCC2)c(O)c1C=NC1CCN(Cc2ccccc2)CC1 | i
CC(=O)C(Sc1ccc2nnc(-c3ccc(F)cc3)n2n1)C(C)=O | i
COc1ccc(OC)c(NC(=O)C2CCCNC2=O)c1 (configuration not stated) | i
O=C(Nc1nc2ccccc2s1)C1CC(=O)N(c2ccc(Br)cc2)C1 (configuration not stated) | 0.3
Clc1ccc(-c2nn3cnnc3s2)c(Cl)c1 | 1.9
Cc1cc(-c2ccccc2)nc(SCc2ccc(C(=O)O)o2)n1 | i
CC(C)(C)c1ccc(C2(C)NC(=O)N(CC(=O)c3ccc[nH]3)C2=O)cc1 (configuration not stated) | i
CNC(=O)CCc1nc(-c2ccc(C(C)(C)C)cc2)no1 | 0.1
CCCN1C(=O)c2ccc(C(=O)NC3CCCCC3)cc2C1=O | i
Cc1noc(C)c1COc1cccc(C(=O)OC(C)C(=O)Nc2ccc3c(c2)OCO3)c1 (configuration not stated) | i
Cc1ccc([N+](=O)[O-])cc1-c1ccc(/C=N/NC(=O)c2cc3c(ccc4ccccc43)o2)o1 | 0.6
Cn1c(=O)[nH]c(=O)c2c1nc(Br)n2CCCSc1nc2ccccc2o1 | 1.1
O=c1ncn(-c2ccc(F)cc2)c2ncccc12 | 0.5
Cc1cc(C)n(-c2ccc(F)cc2)c(=O)c1C(=O)O | i
Oc1ccc(Br)cc1/C=N/n1cnc2ccccc21 | 11
CCOc1cc(/C=N\NC(=O)Cc2ccccc2)ccc1OCC(=O)Nc1ccc(C)c(C)c1 | i
c1ccc2c(Nc3nnc(-c4ccncc4)s3)cccc2c1 | i
Cc1ccc(-c2nc(C#N)c(NCCN3CCCCC3)o2)cc1 | i
CCOC(=O)Cn1c(Br)nc2c1c(=O)[nH]c(=O)n2C | 0.8
COc1ccc2oc(C(=O)OCC(=O)NC(=O)NC(C)C)c(C)c2c1 | i
O=C(O)Cn1ncc2c1-c1ccoc1CC2 | 1.9
CCOC(=O)N1CCC(NC(=O)Cn2ncc3c2-c2cc(C)ccc2OC3)CC1 | i
COc1ccc(Nc2nc(Nc3ccc(OC)cc3)nc(SC3=NCCS3)n2)cc1 | i
CCCCOC(=O)n1c(=O)oc2ccccc21 | 0.7
CCOC(=O)Cc1csc(NC(=O)c2c(O)c3ccccc3n(CC(C)C)c2=O)n1 | 0.9
CC1CCc2c(sc(NC(=O)c3ccc(Cn4cc([N+](=O)[O-])cn4)o3)c2C#N)C1 (configuration not stated) | 0.7
CCOc1ccccc1Nc1nc(N)nc(CSc2nccc(C)n2)n1 | 0.9
CCOc1cc(CN2CCCCC2)ccc1OC | 0.0
Cc1cc(C)c(S(=O)(=O)Nc2c(C)[nH]c(=O)[nH]c2=O)c(C)c1 | i
Cc1cc(NS(=O)(=O)c2ccc(NC(=S)NC(=O)c3ccc(Cl)cc3Cl)cc2)no1 | 0.9
CCOC(=O)Cn1c(=O)oc2cc(S(=O)(=O)NCC3CCCO3)ccc21 (configuration not stated) | 1.3
N#Cc1ccc(CSc2nnc(-c3ccccc3)n2Cc2ccco2)cc1 | 0.2
Cc1nc2ccc(S(=O)(=O)NC(C(=O)N3CCC(C)CC3)C(C)C)cc2s1 (configuration not stated) | 1.9
Cc1cc2oc(=O)cc(CN3CCCCC3)c2cc1C(C)C | 4.7
COc1cc(C(=O)CSc2nncn2C)cc(OC)c1OC | 1.7
COC(=O)c1cc2c(-c3ccccc3)cc3ccccn3c-2c1C(=O)OC | i
COc1ccc(CNC(=O)c2cccc3c2C(=O)N(Cc2cccnc2)C3)cc1 | 0.5
Cc1ccc(-n2c3c(cc(C(=O)N4CCN(C)CC4)c2=O)C(=O)CC(C)(C)C3)cc1 | 2.4
COC(=O)c1c(NC(=O)c2nc3nc(C)cc(C(F)F)n3n2)sc2c1CCC2 | 2.8
COC(=O)Cn1cc(C(=O)C2CC2)c2ccccc21 | 0.3

Of the compounds above, these contain a thiophene ring, fused or not:
SMILES | H5N1 CPE
Cc1cc(C(=O)COC(=O)c2cccs2)c(C)n1-c1c(C)n(C)n(-c2ccccc2)c1=O | i
Cn1cccc1/C=N/NC(=O)c1sc2ccccc2c1Cl | 0.2
CCOC(=O)c1c(NC(=O)CSc2nnc3c(n2)[nH]c2ccc(F)cc23)sc(C(C)=O)c1C | i
O=C(OCc1cccs1)c1ccccc1NS(=O)(=O)c1ccc2c(c1)OCCO2 | 0.4
CC1CCc2c(sc(NC(=O)c3ccc(Cn4cc([N+](=O)[O-])cn4)o3)c2C#N)C1 (configuration not stated) | 0.7
COC(=O)c1c(NC(=O)c2nc3nc(C)cc(C(F)F)n3n2)sc2c1CCC2 | 2.8

(next part)
SMILES | H5N1 CPE
CCC(=O)OC1CC(C)N(C(=O)c2ccccc2)c2ccc(C)cc21 (configuration not stated) | 1.4
COC(=O)c1ccc2c(c1)C(=O)N(C1CCCCC1)C2=O | 0.7
COc1ccc(N2CCN(C(=O)c3ccc(N4C(=O)NC5CC4(C)Oc4ccccc45)cc3)CC2)cc1 (configuration not stated) | 1.8
CC1=C(C(=O)N2CCCCC2)C(c2cccs2)NC(=O)N1 (configuration not stated) | i
CCOCCCNC(=O)C(Cc1ccccc1)NC(=O)c1ccco1 (configuration not stated) | 3.1
CCOc1ccc(NC(=O)C2CCC(CNc3c(N4CCOCC4)c(=O)c3=O)CC2)cc1 (configuration not stated) | 0.5
c1ccc(Oc2nc(Oc3ccccc3)nc(N3CCOCC3)n2)cc1 | 0.2
COc1ccc2[nH]c(C)c(CCN(Cc3cccs3)C(=S)Nc3ccc(F)cc3)c2c1 | i
O=C(Nc1nccs1)C1CCCN1S(=O)(=O)c1cccc2cccnc12 (configuration not stated) | 3.5
COc1ccccc1NC(=O)Cn1cnc2c(oc3ccccc32)c1=O | i
Cc1ccc2c(c1)nnn2C1CCN(CC(=O)c2ccc(Cl)cc2)CC1 | i
Cc1cccc(N2C(N)=NC(N)=NC23CCCCC3)c1 | 1.4
CCCCC(CCC(=O)Nc1ccc(C(=O)OC)cc1)C(=O)O (configuration not stated) | i
O=C(O)c1ccc(N2C(=O)C3ON(c4ccccc4)C(c4ccccc4F)C3C2=O)cc1 (configuration not stated) | i
S=c1[nH]nc(C2CCCCC2)n1/N=C/c1cccs1 | i
O=C(Cn1nnc(-c2ccncc2)n1)NCCc1ccccc1 | i
C=CCNC(=O)c1onc(CSc2ccccc2C)c1C(=O)O | 0.5
O=C(O)Cn1cnc2ccccc2c1=O | i
Cc1ccc(OCC(=O)NCCN2CCN(C(=O)COc3ccc(C)cc3)CC2)cc1 | i
Cc1cccc2nc(CSc3nncn3-c3ccccc3)cn12 | 4.2
CCC(C)[C@H](NC(=O)NCc1cccs1)C(=O)OC (some centres not stated) | 0.8

Screening data deposited in PubChem BioAssay by SRMLSC.

The list is partial; rates above refer to the full screens.
